Yeast UUG start: alters start codon recognition fidelity in yeast; activity score, % at 18.7 µM; AID 602363; S. cerevisiae UUG-firefly luciferase reporter, luminescence/redox ratio; 350,000 tested, 0.13% active;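 active means replicate mean at a twofold rise or more, about +100% in these data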;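 further: firefly luciferase made from a UUG start codon reports start codon fidelity; reporter light over untreated wells divided by growth signal over untreated wells; some hits fall short of that in this replicate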
PABP FP inh: blocks human PABP binding to poly(A) RNA; P11940; 290,000 tested, 1% active; fluorescence polarization; inhibition, % at 35 µM; AID 2014;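 active means 50% or more with normal probe brightness, or confirmed in later tests; inconclusive means above 50% with abnormal brightness, or retests that disagree; inactive means below 50% or failed in later tests; about a fifth of its hits are not listed in these tables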;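 further: calls also rest on retests at 20 µM and on dose response follow-up; controls were probe without protein and protein plus probe with vehicle; some compounds called inactive have numbers as strong as hits; many hits fall short of the cut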
Target sequence (P11940 whole entry, looked up): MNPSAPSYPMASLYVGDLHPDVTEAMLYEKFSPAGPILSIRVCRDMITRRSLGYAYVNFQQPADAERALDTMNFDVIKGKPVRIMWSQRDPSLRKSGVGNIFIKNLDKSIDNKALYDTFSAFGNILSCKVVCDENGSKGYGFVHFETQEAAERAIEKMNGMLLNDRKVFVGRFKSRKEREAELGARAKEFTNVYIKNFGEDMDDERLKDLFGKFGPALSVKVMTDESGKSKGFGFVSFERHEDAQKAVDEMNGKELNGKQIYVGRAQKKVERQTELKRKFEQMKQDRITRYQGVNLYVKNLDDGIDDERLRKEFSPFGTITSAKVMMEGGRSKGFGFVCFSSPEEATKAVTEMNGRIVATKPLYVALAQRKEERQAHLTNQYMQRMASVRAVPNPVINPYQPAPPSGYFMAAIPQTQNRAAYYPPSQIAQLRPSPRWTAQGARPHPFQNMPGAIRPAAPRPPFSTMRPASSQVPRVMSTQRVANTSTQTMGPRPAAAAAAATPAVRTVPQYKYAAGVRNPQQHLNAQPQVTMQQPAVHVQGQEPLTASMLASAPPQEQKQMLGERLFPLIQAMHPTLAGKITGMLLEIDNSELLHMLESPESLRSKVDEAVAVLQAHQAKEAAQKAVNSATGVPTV
Rce1 inhib: blocks yeast Ras-converting enzyme | 290,000 tested, 0.27% active | yeast membranes, quenched prenylated peptide cleavage fluorescence | Q03530 | AID 2563 | calls only;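 active means fall in fluorescence gain of 50% or more versus controls, with final raw signal at or below 3038400; inconclusive means same 50% fall but final raw signal above 3038400; inactive means fall in fluorescence gain under 50%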;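 further: plate controls were neutral control wells for no effect and wells lacking membranes for full effect; tested at 10 µM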
HIV Env fusion: blocks HIV Env-driven cell-cell fusion. 360,000 tested, 1.1% active. inhibition, % at 12.3 µM. HeLa-JRFL Env/CEM21 cell fusion, luciferase;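 active means mean replicate inhibition score of at least 50 and every replicate individually at or above 50; inconclusive means only one of the two criteria met; inactive means mean below 50 and not all replicates reaching 50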;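 further: 0% = plate neutral controls and 100% = maraviroc near 300 nM; one replicate is shown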
CSC inhib: blocks cancer stem cells. cancer stem cell-like cells viability, luminescence. inhibition, % at 7.5 µM. 300,000 tested, 1.1% active;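 active means mean at 75% or more and at least half the replicates too; inconclusive means mean and replicates disagree; tested in HMLE shEcad cells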;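 further: 0% = median of negative and 100% = median of positive control wells; the first replicate is given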
MT1-MMP act inh: MT1-MMP (human) activation inhibition. GFP/RFP ratio change, % at 20 µM. 360,000 tested, 0.061% active. P50281. HT1080 RFP-PRO-GFP cells, GFP/RFP ratio fluorescence, overnight; percent of plate control window, DMSO zero;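 active means GFP/RFP ratio change of at least 30% with cell ATP level not reduced by more than half and red fluorescence within 50% of control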; further: strong numbers were not always called active
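Assay system: HT1080 RFP-PRO-GFP cells. Benchmarks: DMSO vehicle wells and RFP-L50D-GFP reporter cell wells. Times: overnight cell settling, then overnight compound exposure, 37 °C, 5% CO2. Compound: 20 µM single dose, 1% DMSO. Read-out basis: GFP/RFP fluorescence ratio.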
eIF4H inh: inhibitors of RNA binding by human eIF4H; Q15056; eIF4H fluorescence polarization binding assay; inhibition, % at 35 µM; 290,000 tested, 0.94% active;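 active means 50% or more with normal probe brightness, or confirmed in later tests; inconclusive means above 50% with abnormal brightness, or retests that disagree; inactive means below 50% or failed in later tests; about a fifth of its hits are not listed in these tables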;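 further: calls also rest on retests at 20 µM and on dose response follow-up; 0% = protein and probe with vehicle and 100% = probe without protein; strong numbers were not always called active; many hits fall short of the cut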
eIF4H inh retest: recorded beside eIF4H inh, whose call it bears; inhibition, %; compound at 20 µM; confirmation average;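 mean of two retest wells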
PABP FP inh retest: also measured in PABP FP inh; calls as there; inhibition, %; compound at 20 µM; confirmation repeats;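 mean of two retest wells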
MT1-MMP act inh RFP: second read-out of MT1-MMP act inh, no call of its own (marks repeat the call); RFP signal change, %; measured here: RFP expression control read;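 0 = vehicle wells; hits needed this value within 50% of zero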
* = called active by the depositor; i = inactive; ? = inconclusive; . = not tested or not shown; & = joins results of further samples; [ ] = another dose, or the depositor's remark.

SMILES	Yeast UUG start	PABP FP inh	Rce1 inhib	HIV Env fusion	CSC inhib	MT1-MMP act inh	MT1-MMP act inh RFP	eIF4H inh	others
O=c1c2c3c(sc2n(CCN2CCCCC2)c(=O)n1Cc1ccco1)CCCCC3	.	-13.0	i	43.5	-2.7	-2.2	-5.9	-2.2
CCCCC(C(=O)O)C(C)CC(=O)Nc1ccn(-c2ccccc2)n1 (stereo not given)	5.1	-4.0	i	.	-6.6	2.7	1.7	5.6
Cn1c(CC(=O)Nc2ccccc2)nnc1SCC(=O)Nc1ccc(N2CCOCC2)cc1	-6.5	2.4	i	-12.9	3.9	-2.2	0.3	-6.3
CN(CC(=O)Nc1ccccc1Cl)C(=O)COC(=O)c1cc([N+](=O)[O-])ccc1N1CCOCC1	-5.0	.	i	6.6	-7.2	7.0	6.1	.
CC1=CC(=C(C#N)c2nc3ccccc3s2)C=C(C)N1CC1CCCO1 (stereo not given)	.	-6.6	.	-11.3	31.7	4.4	4.9	?
COC(=O)/C(C#N)=C/c1ccc(-c2ccc(S(N)(=O)=O)cc2)o1	-13.2	-3.7	i	-6.8	-11.3	-7.3	-1.2	-4.3
COc1cccc(C2C(C(=O)OC(C)C)=C(C)Nc3ncnn32)c1 (stereo not given)	-12.2	-2.4	i	-11.9	-0.4	-2.0	1.3	0.3
Cc1ccccc1-c1ccc2c(c1)O[C@H](CN(C)C(=O)C1CC1)[C@@H](C)CN([C@@H](C)CO)S2(=O)=O	8.5&2.1&15.3	.	.	1.5&-4.4[16.7 µM]	.	-5.7	-1.4	.
N#C/C(=C\Nc1ccc2c(c1)OCCO2)c1nc2ccccc2[nH]1	-28.6	-2.2	i	.	32.4	4.3	-2.5	1.6
CC1CCN(S(=O)(=O)N2CCC(C(=O)NCCN3CCOCC3)CC2)CC1	-10.1	7.5	i	.	0.5	-0.4	-0.7	-2.0
Cc1ccc(C(C)C)c(OCCn2c(=O)oc3ccccc32)c1	-15.1	-2.0	.	.	23.5	-5.0	-10.2	0.4
O=C1C=CC(=O)N1CCCCCCCCCCN1C(=O)C=CC1=O	-16.0	.	.	-36.2	.	-0.8	1.2	.
Cc1ccc(C)c(S(=O)(=O)C(C#N)c2nc3ccccc3nc2N2CC(C)OC(C)C2)c1 (stereo not given)	22.0	114.5*	i	-21.3	-5.1	-10.9	-14.2	77.8*
CC1C=CCC2C(=O)N(c3cccc(C(=O)N4CCN(c5ccc(F)cc5)CC4)c3)C(=O)C12 (stereo not given)	-1.2	-1.0	.	.	-22.3	-8.8	-3.0	10.9
CCN(C(=O)COC(=O)c1cccnc1Nc1ccccc1F)C1CCS(=O)(=O)C1 (stereo not given)	4.9	25.6	i	17.5	3.5	0.6	2.6	3.6
COc1ccc(OC)c(NC=C2C(=O)OC(C)(C)OC2=O)c1	-0.2	13.0	i	.	0.4	-6.7	4.5	6.2
C=CCOc1ccc2c(c1)c(S(=O)(=O)c1ccc(C)cc1)cn2COC	.	1.6	i	.	.	2.1	-4.4	-11.7
CCOc1ccc(S(=O)(=O)N2CCOCC2)cc1NC(=O)Cc1c(F)cccc1Cl	-6.2	.	i	0.1	7.7	2.6	-1.5	.
Cc1ccc(NCCC(=O)c2cccc([N+](=O)[O-])c2)cc1	-13.3	1.1	i	-51.0	.	6.5	9.7	6.7
CN1CCc2ccccc2C1C1CCNCC1 (stereo not given)	.	6.1	i	.	3.1	-6.1	-2.9	2.0
COc1ccc(OC)c(NC(=O)C2CCN(C(=O)C3CC(=O)N(c4ccc(C)cc4)C3)CC2)c1 (stereo not given)	2.6	4.1	i	13.9	-2.8	1.6	0.2	-6.1
Cc1nn(CCc2nc(-c3ccco3)cs2)c2[nH]c(=O)cc(C(F)(F)F)c12	-11.6	58.4*	.	.	-25.5	-3.2	6.2	45.4*	eIF4H inh retest=84.5*;PABP FP inh retest=66.1*
O=C1CC(N2CCOCC2)C(=O)N1c1cccc(Cl)c1 (stereo not given)	-14.3	11.5	i	.	-1.8	-1.6	2.0	5.8
COc1ccc(N2CCN(C(CNC(=O)C(=O)NCCCO)c3ccco3)CC2)cc1 (stereo not given)	-10.6	-4.6	i	-19.0	-8.4	-0.6	1.2	-25.4
CCN(CC(=O)Nc1cccc(S(=O)(=O)N2CCOCC2)c1)Cc1ccccc1	-20.1	.	i	.	-7.0	1.5	4.4	.
Oc1ccc(-c2nnc(SCc3ccccc3)o2)cc1	-32.3	8.5	.	-70.3	23.4	0.6	-1.9	-1.0
O=C(CCc1nc2ccccc2c(=O)[nH]1)NCCN1C(=O)S/C(=C\c2ccc(Cl)cc2Cl)C1=O	1.4	.	i	-17.9	4.9	-31.6	-18.0	.
Cc1c(Br)cccc1NC(=O)C1(C)CCN1Cc1ccccc1OC(F)F (stereo not given)	1.3	.	.	21.7	.	-8.7	-20.5	.
Cc1ccc(NC(=O)C2CCCN(c3ncnc4c3nc3n4CCCCC3)C2)nc1 (stereo not given)	8.1	4.0	i	9.0	15.3	-1.3	-2.6	6.3
CCOC(=O)C1CCN(C(C(=O)Nc2ccc3c(c2)OCCO3)c2ccccc2)CC1 (stereo not given)	-12.6	-4.9	i	.	3.1	-2.5	-0.1	0.4
COc1cc2c(cc1OC)C(c1cccs1)N(C(=O)c1ccc(S(=O)(=O)N(C)C)cc1)CC2 (stereo not given)	-11.4	-1.0	i	-4.9	-20.3	-4.4	-3.3	-1.7
NC(=O)C1CCN(C(=O)CN2CCc3ccccc32)CC1	-3.9	6.8	i	.	-5.2	4.6	11.7	3.0
COc1ccc(C(=O)/C=C/c2cccs2)c(OC(=O)N2CCOCC2)c1	.	1.0	i	-0.3	-1.8	-4.3	-3.9	-4.5
C[C@H]1CN([C@@H](C)CO)C(=O)Cc2cc(NC(=O)Cc3cn(C)c4ccccc34)ccc2O[C@@H]1CN(C)S(=O)(=O)c1cn(C)cn1	-13.8	.	.	12.1	.	-0.6	6.8	.
COc1ccc(NC(=O)C2CCCC2)cc1	-20.5	1.6	i	-10.5	-11.7	-0.9	2.3	-14.2
COc1ccc2[nH]cc(CCNC(=O)CC[C@H]3O[C@@H](n4cc(C)c(=O)[nH]c4=O)C[C@@H]3O)c2c1	-10.6	.	.	14.0	.	3.5	3.0	.

In the list so far, these contain an aryl thioether with sulfur outside any ring.
SMILES	Yeast UUG start	PABP FP inh	Rce1 inhib	HIV Env fusion	CSC inhib	MT1-MMP act inh	MT1-MMP act inh RFP	eIF4H inh	others
Cn1c(CC(=O)Nc2ccccc2)nnc1SCC(=O)Nc1ccc(N2CCOCC2)cc1	-6.5	2.4	i	-12.9	3.9	-2.2	0.3	-6.3
Oc1ccc(-c2nnc(SCc3ccccc3)o2)cc1	-32.3	8.5	.	-70.3	23.4	0.6	-1.9	-1.0

Going on with the list:
SMILES	Yeast UUG start	PABP FP inh	Rce1 inhib	HIV Env fusion	CSC inhib	MT1-MMP act inh	MT1-MMP act inh RFP	eIF4H inh	others
NC(=O)CC(NC(=O)Cc1cccc2ccccc12)c1ccc(NC2CCCCCCC2)c([N+](=O)[O-])c1 (stereo not given)	-42.3	-8.7	i	22.5	?	-1.0	-0.7	19.4
CCN(CC)S(=O)(=O)c1ccc(NC(=O)Cn2c(=O)oc3ccccc32)cc1	-17.9	-4.3	i	-6.0	-18.6	0.9	-1.5	-2.1
O=C(O)CCC(=O)Nc1ccc(Br)cc1C(=O)c1ccccc1Cl	-2.4	10.1	i	0.4	-13.7	3.5	-1.2	-2.8
C=CCN1CCc2c(cc(O)c(O)c2Cl)C(c2ccccc2)C1 (stereo not given)	-28.7	-0.4	i	-8.4	35.2	-7.8	-5.9	-3.9
Cc1sc2nc(SCC(=O)Nc3c(C)n(C)n(-c4ccccc4)c3=O)n(C)c(=O)c2c1C	-4.9	15.8	i	19.6	-2.5	-1.6	-0.6	14.4
O=C1c2ccccc2C2=Nc3ccccc3SC(c3cccc(F)c3)C12 (stereo not given)	-20.6	-7.0	i	-103.3	5.5	-5.4	-17.0	-7.1
O=c1c2ccccc2nnn1CSc1nnnn1-c1ccccc1	-17.3	-10.7	i	-8.4	-12.9	2.4	-3.7	-13.4
CC1CC(C)CN(C(=O)COC(=O)c2nn(C)c(=O)c3ccccc23)C1 (stereo not given)	-6.6	.	i	.	-7.4	3.8	-1.8	.
Cc1ccc(N(CC(=O)NCCc2ccccc2)S(=O)(=O)c2c(C)noc2C)cc1	.	11.4	i	.	-7.2	-5.2	1.0	-8.2
N#Cc1nc(COc2ccc(Br)cc2)oc1N1CCCC1	-10.2	-4.2	i	.	0.3	-1.4	-0.5	-0.7
CCOC(=O)C1CCN(C(=O)Cn2cc(C#N)c3ccccc32)CC1	-11.3	-4.2	i	.	-6.3	-3.4	1.0	-15.9
Cc1ccc(Cl)cc1NC(=S)N(CCCN1CCN(C)CC1)Cc1ccco1	-20.5	3.3	i	3.6	8.5	10.2	3.1	-5.6
COc1nc(-c2ccccc2)c2c(c1C#N)CC(C)(C)OC2	-6.9	6.4	i	.	8.4	-5.1	-6.0	-7.6
CSc1nc(NCC(C)C)c2c3c(sc2n1)CN(C)CC3	-2.7	12.8	i	-0.6	14.9	-15.6	-13.9	-1.9
O=c1[nH]c2ccccc2c2oc(CCl)nc12	.	6.1	i	14.9	4.3	0.6	4.4	4.5
COc1cccc(NC(=O)COC(=O)C2CCCCC2)c1	-17.1	.	.	2.0	-18.7	.	.	.
COc1ccc(CNC(=O)C2CCN(C(=O)[C@@H]3Cc4ccccc4CN3)CC2)cc1	-19.8	20.4	i	-6.6	0.4	0.4	1.7	-7.0
COc1ccc(S(=O)(=O)N(C)C[C@@H]2Oc3ccc(NS(=O)(=O)c4cn(C)cn4)cc3C(=O)N([C@@H](C)CO)C[C@@H]2C)cc1	2.5	.	.	14.2[16.7 µM]	-7.5	0.8	2.8	.
COC(=O)CCCCCCCCCCN1CCCCC1	-21.7	7.6	i	13.1	25.1	1.3	6.1	-5.4
COC(=O)c1cccc(NC(=O)CC2C(=O)NCCN2C(=O)Nc2cc(C)cc(C)c2)c1 (stereo not given)	2.7	-4.7	i	6.0	-1.7	3.7	4.1	-15.2
O=C(NCCS(=O)(=O)N1CCN(c2ccccc2)CC1)c1cccs1	-12.9	.	i	.	.	-2.6	-1.8	.
CCNc1nc(C)c2cc(Br)c(=O)n(CC)c2n1	-9.0	13.4	i	-40.8	42.7	3.2	-0.2	3.3
Cc1noc(NS(=O)(=O)c2ccc(NC(=O)c3cccc(S(=O)(=O)N(C)c4ccccc4)c3)cc2)c1C	-0.9	.	.	8.7	.	7.9	0.0	.
Cc1ccccc1N1CCN(C2CCCN(C(=O)c3ccc(Cl)s3)C2)CC1 (stereo not given)	-8.0	-10.6	i	43.9	.	.	.	-4.7
O=C1CCCCC1C1(O)C(=O)Nc2ccccc21 (stereo not given)	-4.0	.	.	-12.8	.	-2.7	2.7	.
O=C(c1cnc2n(c1=O)CCS2)N1CCN(c2ccccc2F)CC1	-11.0	-4.4	i	-4.9	-1.7	-0.2	1.9	-12.8
COc1ccccc1C(=O)N1CCN=C1SCc1cccnc1	-4.2	9.9	i	.	14.9	-0.6	1.5	2.1
Cc1nc(NC(=O)CN(C)S(=O)(=O)c2ccc(Cl)cc2)sc1C	-6.3	3.6	i	.	3.8	-7.1	-0.7	-0.3
O=C(N/N=C/c1ccccc1O)c1cccc(C(F)(F)F)c1	-9.2	4.3	i	-33.2	77.8*	9.7	-0.2	8.8

High-throughput results: PubChem, several laboratories
